High-throughput results as filed in PubChem.
HPGD block: blocks human HPGD enzyme activity. P15428. purified HPGD, NADH fluorescence kinetic, PGE2 substrate. Potency, µM, without a hit: at the top dose activity change, negative = inhibition, usual class: inhibitors. 150,000 compounds, 4.3% hits. AID 894; active = well fitted inhibition curve with a large enough effect (not every such curve was filed as active); inconclusive = small, poorly fitted or top-dose-only effect, or another doubt; inactive = no such curve, though single readings can be large or run the other way;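 note: top concentration of the series not given in the record; plate controls included wells without enzyme; inactives centre near -10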
Target sequence (P15428 whole entry, looked up): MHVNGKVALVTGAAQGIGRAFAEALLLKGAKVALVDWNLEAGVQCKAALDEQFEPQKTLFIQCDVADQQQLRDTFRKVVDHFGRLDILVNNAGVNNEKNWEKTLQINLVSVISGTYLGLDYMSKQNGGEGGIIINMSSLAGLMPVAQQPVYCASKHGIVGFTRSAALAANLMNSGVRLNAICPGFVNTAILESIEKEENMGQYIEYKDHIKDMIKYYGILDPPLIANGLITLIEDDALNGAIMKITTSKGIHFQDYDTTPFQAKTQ
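NADH formation kinetics: reaction with 30 uM PGE2 and 1 mM NAD+ (final), 20 nM enzyme, Tris-HCl pH 8 with Tween 20, after 15 min compound preincubation at room temperature. Fluorescence change, last versus first of five reads.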
* = called active by the depositor; ? = inconclusive; & = joins results of further samples. % is set by controls: 0 for no effect and ±100 for the full control effect; potency is the fitted concentration of half-maximal effect.

HPGD block	molecule
?	COc1cc(C)ccc1OCCCOc1ccccc1Cl
12.6µM*	CC(Cc1ccc(O)c(O)c1)C(C)Cc1ccc(O)c(O)c1 (centres undefined)
-16.6%	CC(C)C(=O)c1cn(CC(=O)NCc2ccc3c(c2)OCO3)c2ccccc12
-4.0%&-9.1%&4.2%	CC#CCC1(C(=O)OC)C(=O)NC[C@H]1c1ccccc1 (some centres undefined)
-6.8%	O=C(Nc1nnc(CC(=O)N2CCOCC2)s1)c1cccs1
-0.9%	O=C(Nc1cccc(F)c1)N1CCCC2(CCN(C(=O)c3csnn3)CC2)C1
-20.0%	COc1cc(NC(=O)NS(=O)(=O)c2ccc(C)cc2)cc(OC)c1
-19.2%	CCOc1ccc(/C(O)=C/C(=O)C(=O)Nc2ccc(S(=O)(=O)NC(C)=O)cc2)cc1
-16.3%	Cc1cccc(CNc2ccnc(-c3ccccc3CN(C)C)n2)c1
-5.7%	CCOc1ccccc1N(CC(=O)NC(C)(C)C)C(=O)Cn1nnc(-c2ccc(C)o2)n1
-15.8%	CCOC(=O)c1cc(CC)sc1NC(=O)c1cccc(N2C(=O)CCC2=O)c1
-6.4%	CCc1c(C(=O)OC)nnc2cc(C)nn12
-8.4%&3.0%	O=C(NCC1CCCCN1)c1cc(OCC(F)(F)F)ccc1OCC(F)(F)F (centres undefined)
-1.3%	CC(=O)Nc1ccc(S(=O)(=O)NNC(=O)COc2cccc3ccccc23)cc1
-2.2%	CCOc1cc(-n2ncc(C#N)c2N)nc(SC)n1
-2.2%	O=C(C1CC1(c1ccccc1)c1ccccc1)N1CCOCC1 (centres undefined)
-6.2%	CCC(C)(C(=O)NC1CCCCC1)N(Cc1ccco1)C(=O)c1cnccn1 (centres undefined)
-11.0%	CN1c2ccccc2C(O)=C(C(=S)Nc2ccc(Cl)cc2)S1(=O)=O
-19.4%	Cc1ccc(CNc2ncc(-c3ccc4c(c3)OCO4)n2C)cc1
-19.8%	CCC(c1nnnn1CCc1ccccc1)N(Cc1ccco1)Cc1cc2cccc(C)c2[nH]c1=O (centres undefined)
-1.1%	C=CCOc1cccc(C2/C(=C(\O)c3ccc(F)cc3)C(=O)C(=O)N2CCN(C)C)c1 (centres undefined)
-11.6%	CC1(C)CC(=O)C(C=NC2CCCCC2)=C(O)C1
-11.3%	CCN(CC)c1nc2c(s1)C(=O)NCCC2
-11.6%	COC(=O)c1ccc(NC(=O)COc2ccc(C3C(C#N)=C(N)Oc4c3ccc3ccccc43)cc2OC)cc1 (centres undefined)
-2.6%	COc1ccc(CCNC(=O)C2CCN(S(=O)(=O)N3CC(C)CC(C)C3)CC2)cc1OC (centres undefined)
-4.2%	Cc1nc(-n2cc(F)c(=O)[nH]c2=O)c2nc(C)oc2n1
17.8µM*	O=[n+]1c2c(n([O-])c3cc(F)c(F)cc31)CCCC2
-8.7%	CCOc1ccc(NC(=O)CN(C)CC(=O)Nc2ccccc2C#N)cc1OCC
?	COc1cccc(-c2cc(C(=O)Nc3ccccc3SC)no2)c1
-12.6%	CNCCCCOc1ccccc1-c1ccccc1
-22.7%	Cc1ccc(/C=N/N2C(=S)SC(C)(C)C2N(O)C(=O)Nc2ccc([N+](=O)[O-])cc2)cc1 (centres undefined)
-10.1%	CCOc1ccc(S(=O)(=O)Oc2ccc3ccccc3c2)cc1
-16.2%	COC(=O)CN1C(=O)C2(C(C#N)=C(N)Oc3cc(C)oc(=O)c32)c2ccccc21 (centres undefined)
-20.6%	Cc1ccc(-c2nn(CC(=O)NCc3cc(-c4nn(C)c(=O)c5ccccc45)ccc3C)c(=O)c3ccccc23)cc1
-21.3%	N#Cc1cc(-c2ccccc2)nnc1Sc1ccccc1
-16.0%	COc1ccc(Cl)cc1NC(=O)CN(C(=O)c1ccco1)C1CCCCC1
?	O=C(Nc1ccc(N2CCN(C(=O)c3ccco3)CC2)c(Cl)c1)c1cc2ccccc2o1
28.2µM*	O=C(Nc1ccc2c(c1)OCO2)c1ccccc1SCC(=O)N1CCCC1
-4.2%	c1ccc(Oc2nc(NC3CCCCC3)c3[nH]cnc3n2)cc1
?	CCCC1S/C(=N/N=C/c2ccco2)NC1=O (centres undefined)
-6.5%	COC(=O)C1=C(C(=O)OC)SC2(S1)C(C(=O)OC)=C(C(=O)OC)SC1=C2c2cccc(C)c2NC1(C)C
-11.3%	CCCCNC(=O)CSc1nc2cc3c(cc2c(=O)n1CCCN(CC)CC)OCO3
-7.2%	CCN1CN(Cc2ccco2)CNC1=S
-19.6%	CCN1/C(=C/C(=O)c2ccco2)Sc2ccccc21
-14.9%	CCS(=O)(=O)N1Cc2ccccc2CC1C(=O)N1CCN(c2cccc(C)c2C)CC1 (centres undefined)
-26.1%	Cn1c(CSc2nnc(SCc3ccccc3)s2)nc2ccccc21
?	COc1ccc(-c2nc3ccc(N4CCCC4)cc3c(=O)[nH]2)cc1OC
-14.7%	COc1ccccc1C1C(C(C)=O)=C(C)N=c2s/c(=C\c3cc(OC)c(OC)c(OC)c3)c(=O)n21 (centres undefined)
-12.6%	CCCN(CCC)CCNC(=O)c1cc2c(C)nc3ccccc3c2o1
-19.9%	COc1cc(/C=C/C(=O)Nc2nc3ccc(S(=O)(=O)NC(C)C)cc3s2)cc(OC)c1OC

(list continues)
HPGD block	molecule
-5.9%	COc1cccc(NC(=O)c2nnn(Cc3ccc(Br)cc3F)c2N)c1
-8.8%	CCOC(=O)[C@]1(CC(=O)O)CCCC1=O
?	CC(C)CNc1oc(-c2ccco2)nc1C#N
-7.5%	O=C1c2ccccc2C(=O)N1CCCC(=O)N1CCCc2ccccc21
-7.8%	Cc1[nH]c2ccccc2c1C(=O)COC(=O)C1CC(=O)N(Cc2ccccc2)C1 (centres undefined)
-10.3%	Cc1cc(C(=O)OCC(=O)N2CC(=O)Nc3ccccc32)c(C)n1-c1ccccc1
2.4%	COc1cc(C)c(S(=O)(=O)NCc2ccc3c(c2)OCO3)cc1C
-4.2%	CCn1cc(C(=O)OCC(=O)Nc2ccc(S(=O)(=O)N3CCCC3)cc2)c(=O)c2ccc(C)nc21
-13.1%	Cc1ccc(CSCCNC(=O)c2cccc([N+](=O)[O-])c2)cc1
-8.5%	C=CCn1c(SCC(=O)Nc2nnc(CC)s2)nnc1-c1cccnc1
-19.0%	Cc1[nH]c(=O)c(C#N)c(C)c1Br
-12.5%	Cn1c(=S)c2[nH]c(SCCN3C(=O)c4ccccc4C3=O)nc2n(C)c1=O
-18.0%	CCCSc1nnc(N)s1
0.1%	O=C(O)[C@H]1CCCN(CCC=C(c2ccccc2)c2ccccc2)C1
-14.8%	NC(=O)CSc1nnc(Cc2ccc3c(c2)OCO3)n1C1CCCCC1
-13.9%	COc1cc(OC)c(C2N(c3ccc(Cl)c(Cl)c3)C(=O)C3CCCN32)cc1OC (centres undefined)
-15.9%	COc1ccc(Oc2ccc(N/C=C3\CCCC3=O)cc2)cc1
-8.4%	COCCNC(=O)NC(=O)COC(=O)Cc1ccc2c(c1)OCCO2
-15.3%	C/C=C(\C)CN1CCN(c2ccccc2F)CC1
-2.0%	CC(CC#CCN1CCOCC1)OCCC#N (centres undefined)
-0.7%	CCOC(=O)COc1cc(N2C(=O)CSCC2=O)c(Cl)cc1Cl
-5.7%	Cc1nc2sc(C(c3ccco3)N3CCC(Cc4ccccc4)CC3)c(O)n2n1 (centres undefined)
-1.6%	CCOc1ccccc1-n1c(SCC(=O)Nc2nccs2)nnc1-c1ccoc1C
-19.1%	Cc1cc(C(=O)COC(=O)C2=NNC(=O)CC2)c(C)n1-c1ccccc1
-4.3%	O=C(CSCCO)Nc1nccs1
?	CC1CCc2c(C(=O)NCCN3CCOCC3)csc2C1 (centres undefined)
?	CCC(C)c1ccc(NC(=S)NCc2cccnc2)cc1 (centres undefined)
-5.4%	O=S(=O)(c1ccc(Br)s1)N1CCN(c2ccccn2)CC1
-2.7%	CCN(CC)C(=O)N1c2ccccc2CC(N(CC)CC)c2ccccc21 (centres undefined)
-2.0%	NS(=O)(=O)c1cccc(NC(=O)CSc2nc3ccccc3c(=O)n2CCCN2CCOCC2)c1
-1.9%	Cc1cc(Oc2ccccc2)nc(-c2ccccc2O)n1
-12.6%	CC1(C)CC(=O)C/C(=N/NC(=O)C2CCN(S(=O)(=O)c3cccs3)CC2)C1
25.1µM*	O=S(=O)(NC1CCCC1)c1ccc(Br)s1
-20.4%	COc1ccc(/C=C/C(=O)c2ccc[nH]2)cc1OC
-15.7%	O=C(COc1cccc(-n2cnnn2)c1)NCCC1=CCCCC1
-6.9%	O=C(c1cnccn1)N1CCC2(CCCN(Cc3ccccc3)C2)CC1
-2.8%	COc1ccc(N2CCN(C(=O)C3(C)CC3(Cl)Cl)CC2)cc1 (centres undefined)
3.0%	CCS(=O)(=O)N1CCCC(c2nc(-c3cccc(OC)c3)no2)C1 (centres undefined)
14.1µM*	O=C(CSc1n[nH]c(-c2ccccc2)n1)NC(=O)NCc1ccco1
2.6%	CC1Cc2ccccc2N1C(=O)CNCCCN(C)C (centres undefined)
-9.4%	CCOc1cc(C(=O)Nc2ccccc2N2CCN(S(C)(=O)=O)CC2)cc(OCC)c1OCC
-10.9%	Cc1ccc(OCC(O)CN2CC3(C)CC2CC(C)(C)C3)cc1 (centres undefined)
-16.8%	COc1ccc(N2CCN(c3cc(C)c4ccc(O)cc4n3)CC2)cc1
-16.1%	FC(F)(F)c1cc(-c2ccco2)nc(NCc2cccs2)n1
-10.4%	CCN(CCCNC(=O)C1CCN(S(=O)(=O)N2CCOCC2)CC1)c1cccc(C)c1
-15.2%	Cn1c(C(=O)NCc2cccnc2)cc2sccc21
-9.5%	CC1CN(C(=O)CCn2c(=O)oc3ccccc32)CC(C)O1 (centres undefined)
-23.5%	COc1cc(-c2ccccc2)nc(N)n1
?	CN(C)CCNC(=O)c1cc2c(s1)-c1ccccc1OC2
-2.1%	CC(C)CNC(=S)NC1CC2CCC(C1)N2Cc1ccccc1 (centres undefined)

Among those listed so far, two contain a COOH group:
HPGD block	molecule
-8.8%	CCOC(=O)[C@]1(CC(=O)O)CCCC1=O
0.1%	O=C(O)[C@H]1CCCN(CCC=C(c2ccccc2)c2ccccc2)C1

Further records follow:
HPGD block	molecule
-7.4%	COc1ccc(OCC#CCNC(C)(C)C)cc1
-7.5%	CCOC(=O)c1cc(C(=O)OCC)cc(-n2cc(O)c(C(=O)OCC)n2)c1
-4.3%	CC(c1ccco1)N(C(=O)Nc1ccccc1)C1CCCCC1 (centres undefined)
-15.1%	CCC(=O)Nc1ccc(C(=O)NNC(=O)COc2cccc(C)c2)cc1
-20.6%	COCCCNC(=O)c1ccccc1Oc1ccccc1
-14.6%	O=C(NC1(C(F)(F)F)N=C2SCCN2C1=O)c1ccco1 (centres undefined)
-15.6%	Cc1cccc(NC(=O)CCN2C(=O)c3ccccc3C2=O)n1
?	CC(C)OC(=O)n1c(=S)oc2ccccc21
-7.6%	CSCC[C@@H](C(=O)O)N1Cc2ccccc2C1=O
?	Cc1cc(N2CCCCC2)n2ncc(-c3ccccc3)c2n1
-17.8%	O=C1S/C(=C/c2ccccc2)C(=O)N1CC(O)Cn1c2ccccc2c2ccccc21 (centres undefined)
-21.7%	CCOC(=O)Cn1c(S(=O)(=O)Cc2ccc(Cl)cc2)nc(-c2ccccc2)c1-c1ccccc1
-9.8%	COc1ccc(OC)c(CN2CCC(C(=O)N3CCN(c4ccccc4F)CC3)CC2)c1
-29.7%	COC(=O)c1ccccc1NC(=S)NC(=O)c1ccc(C)cc1
?	CC1=C(C(=O)Nc2ccccc2)C(c2ccco2)C(C#N)=C(SCc2ccccc2)N1 (centres undefined)
-16.1%	CC(=O)c1c(N2CCOCC2)[nH]c(-c2ccccc2)nc1=S
-15.0%	COCC(=O)Nc1cc(C(=O)NCCc2ccccc2)ccc1Cl
-9.6%	CCOC(=O)c1nnn(-c2nonc2N)c1C
-9.4%	CCC(CC)C(=O)NCCCCc1ccccc1
-17.2%	O=C(c1ccc(F)cc1)N1CCC(O)(c2cccnc2)CC1

Rewritten as labelled records: entries from further up
> CCN1CN(Cc2ccco2)CNC1=S
  HPGD block: -7.2%
> CCN1/C(=C/C(=O)c2ccco2)Sc2ccccc21
  HPGD block: -19.6%

Shown with each value named: part of the list above
CC(=O)c1c(N2CCOCC2)[nH]c(-c2ccccc2)nc1=S
  HPGD block = -16.1%
COCC(=O)Nc1cc(C(=O)NCCc2ccccc2)ccc1Cl
  HPGD block = -15.0%
CCOC(=O)c1nnn(-c2nonc2N)c1C
  HPGD block = -9.6%
CCC(CC)C(=O)NCCCCc1ccccc1
  HPGD block = -9.4%

Next section.
HPGD block	molecule
-11.4%	O=C(CCN1C(=O)C2C3C=CC(C3)C2C1=O)Nc1ccccn1 (centres undefined)
-14.3%	CCn1c(O)c(/C=C2\C=Nc3ccccc32)sc1=Nc1ccccc1
-13.4%	Cc1ccccc1OCCOc1ccccc1C=C(C#N)C#N
14.1µM*	Cc1cccc(N2C(=O)SC(SC(=Nc3ccccc3)Nc3ccccc3)C2=O)c1 (centres undefined)
-19.0%	O=C(Nn1c(C2CC2)nc2ccccc2c1=O)c1ccco1
-6.6%	Cc1noc(C)c1COC(=O)Cn1c(C)nc2ccccc21
-15.1%	c1cncc(-c2nc(-c3cccs3)cs2)c1
?	O=C1c2cc3ccccc3c(-c3ccccc3)c2C(=O)N1c1ccccn1
25.1µM*	O=C(c1ccccc1)c1nc2ccccc2[nH]c1=O
3.5%	Cn1c(=O)n(CC(=O)Nc2ccc(F)cc2)c2ccccc21

Only part of the results is shown, so the mix of outcomes need not match the whole.
